Bioassay records as filed in PubChem.
KAT2A inh: qHTS Assay for Inhibitors of GCN5L2. Potency, µM (series often up to 58.9 µM), for inactives: top-dose activity change, negative = inhibition, most hits filed as inhibitors. GCN5L2 HAT assay, ThioGlo1 CoA-SH fluorescence. actives 0.21% (n = 390,000). AID 504327, 2011
Target sequence (Q92830 whole entry, looked up): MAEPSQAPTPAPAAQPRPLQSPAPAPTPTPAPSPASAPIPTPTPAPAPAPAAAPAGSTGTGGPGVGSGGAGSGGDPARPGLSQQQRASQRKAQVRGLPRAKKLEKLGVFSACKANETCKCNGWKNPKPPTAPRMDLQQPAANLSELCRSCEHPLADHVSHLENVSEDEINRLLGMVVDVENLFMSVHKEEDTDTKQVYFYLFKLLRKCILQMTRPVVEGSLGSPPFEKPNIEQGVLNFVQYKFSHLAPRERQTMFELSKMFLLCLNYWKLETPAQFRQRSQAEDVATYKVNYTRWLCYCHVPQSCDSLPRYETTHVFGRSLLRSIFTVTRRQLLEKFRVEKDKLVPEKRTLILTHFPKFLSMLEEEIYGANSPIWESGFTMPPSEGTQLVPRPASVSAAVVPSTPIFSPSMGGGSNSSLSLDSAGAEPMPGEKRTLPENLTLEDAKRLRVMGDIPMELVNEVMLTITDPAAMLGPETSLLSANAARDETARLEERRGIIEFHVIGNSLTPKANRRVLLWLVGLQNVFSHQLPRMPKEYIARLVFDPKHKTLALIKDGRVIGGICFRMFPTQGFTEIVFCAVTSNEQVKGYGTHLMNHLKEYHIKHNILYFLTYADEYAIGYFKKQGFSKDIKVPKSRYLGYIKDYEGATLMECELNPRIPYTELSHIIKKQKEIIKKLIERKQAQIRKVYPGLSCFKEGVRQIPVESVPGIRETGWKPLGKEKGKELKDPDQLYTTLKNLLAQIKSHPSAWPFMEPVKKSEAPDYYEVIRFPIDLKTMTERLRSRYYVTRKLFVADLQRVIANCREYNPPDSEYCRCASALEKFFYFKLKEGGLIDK
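Compounds, pin-transferred from DMSO stocks, meet 20nM GCN5L2 for 15 min before the reaction begins with H3(1-25) peptide (75uM) and acetyl-CoA (70uM). Thiol-reactive ThioGlo1 reports CoA release over 20 min at room temperature.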
N370S GC: qHTS Assay for Inhibitors and Activators of N370S glucocerebrosidase as a Potential Chaperone Treatment of Gaucher Disease; Lysosomal acid glucosylceramidase (Homo sapiens), P04062; N370S GC spleen homogenate, 4MU-glucoside fluorescence; Potency, µM (titrated, usually from 59.4 µM), inactives show at the highest dose activity change, negative = inhibition, actives largely listed as inhibitors; actives 0.092% (n = 330,000); AID 2101, 2009;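 further: 0% = full enzyme activity and -100% = no enzyme basal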
The depositor's hits bear a star; ? = inconclusive; nt = not tested or not shown; & = joins results of further samples; [ ] = dose if it differs, or a comment. The call rests on the fitted dose curve; in most records, active means well fitted curve in the direction sought with a large enough effect; inconclusive means small, poorly fitted or top-dose-only effect, or another doubt; inactive means no such curve, though single readings can be large; an effect the other way counts as inactive or inconclusive. Unless noted, on the % scale 0 is the no-effect control and ±100 the full control effect; potency means the concentration at half of the fitted maximal effect. This is a subset; most or all hits stand in other tables.

KAT2A inh,N370S GC,compound
-1%,0%,COc1cccc(NCc2nnc(SCC(=O)N(C)C3CCS(=O)(=O)C3)n2C2CCCCC2)c1 (stereo not drawn)
-7%,-4%,CC(=O)C1=C(O)C(=O)N(Cc2cccnc2)C1c1ccccc1Cl (stereo not drawn)
4%[21.4 µM],1%[21.6 µM],CC1(C)S[C@@H]2[C@H](NC(=O)C(N)c3ccccc3)C(=O)N2[C@H]1C(=O)O (stereo partly drawn)
0%,-5%,Cc1oc(=O)c(NC(=O)c2ccccc2)cc1C(C)O (stereo not drawn)
-1%,-2%,O=C(O)CCCC(=O)Nc1cccc(-c2nc3ccccc3[nH]2)c1
-15%,-4%,O=C(Nc1nc2ccccc2s1)C1CCN(S(=O)(=O)c2cc([N+](=O)[O-])ccc2Cl)CC1
-7%,3%,O=C(Oc1ccc(C(=S)N2CCOCC2)cc1)c1cccc(Cl)c1
0%,6%,CC(C)OC(=O)CSc1nnc(C2CCCCC2)n1N
-1%,-4%,CSc1ncccc1C(=O)NNc1cc(Cl)ccc1Cl
-5%,6%,CC(C)Cn1c(N)c(C(=O)COC(=O)c2ccccc2Cl)c(=O)n(C)c1=O
-4%,-4%,Cc1ccc2oc(C(=O)N3CCC(O)(c4ccccc4)CC3)c(C)c2c1
-5%,nt,Cc1ccc(NC2OC(CO)C(O)C(O)C2O)cc1 (stereo not drawn)

Remaining list, next part:
KAT2A inh,N370S GC,compound
16%,2%,O=C(Nc1cccc([N+](=O)[O-])c1)C1C2/C=C\CCCCC21 (stereo not drawn)
-6%,nt,COc1ccc(NCc2nnc3n2CCCCC3)c(OC)c1
-13%,3%,CC(C)(C)OC(=O)CNC(=O)c1nc[nH]c1C(=O)NCC(=O)OC(C)(C)C
4%,-4%,COc1cc(OC)c(NC(=O)Nc2ccc(OC)c(OC)c2)cc1Cl
-7%,nt,COc1ccc(C2=NOC(Cn3nc(-c4ccccc4)cc3C(=O)NCc3ccco3)C2)cc1 (stereo not drawn)
-2%,-7%,Cc1ccc(S(=O)(=O)N2CCCCC2)cc1C(=O)NCc1ccccn1
2%,-17%,CC(C)Oc1ccc(C2CC(=O)N(c3ccccc3)C2=O)cc1 (stereo not drawn)
-4%[0.501 µM],6%,CCOC(=O)c1sc2nccc(N(C)C)c2c1N=CNOC
-9%,nt,Cc1ccc2nc(COc3cccc(NC(=O)c4ccccc4Cl)c3)cc(=O)n2c1
-3%,?,O=C(O)CC(NC(=O)Nc1ccccc1)c1ccc(OC2CCCC2)cc1 (stereo not drawn)
0%,-15%,CCOC(CNC(=O)c1ccc2c(c1)ncn2-c1ccc(F)c(F)c1)OCC
-10%,-5%,Cc1ccccc1NC(=O)Cc1nnc(SCC(=O)NC2CCCCC2)n1C

Following part
KAT2A inh,N370S GC,compound
-2%,3%,COc1ccccc1CCNC(=O)NC1CCCCC1
-3%,7%,Cc1ccc(Nc2nc(N)nc(CSc3nnnn3-c3ccccc3)n2)cc1
-6%,-1%,C=CCn1c(=O)c(C(=O)NCc2ccccc2)c(O)c2ccccc21
-4%,-4%,COc1ccccc1N(CC(=O)Nc1ccc(S(=O)(=O)N2CCOCC2)cc1)S(C)(=O)=O
-13%,2%,C=CCN=C1CC(C)(C)CC(=O)/C1=C(/O)CCC(=O)OC
-5%,-10%,COc1cccc(C2C(C(=O)c3cccs3)=C(O)C(=O)N2CCN2CCOCC2)c1OC (stereo not drawn)
-14%,0%,Cc1cc(C)n(/C(=C\N(C)C)C(=O)c2ccc(Cl)cc2)n1
-12%,26%,C=CCn1c(SCC(=O)N2CCc3ccccc3C2)nc2ccccc2c1=O
6%,27%,CC(=O)Nc1ccc(NC(=O)CSc2nc3nc(-c4cccs4)cc(C(F)(F)F)c3c(=O)[nH]2)cc1
-1%,14%,O=C(CSCc1cnn(-c2ccccc2)c1-n1cccc1)NCc1cccnc1
-14%,0%,O=C1C(=O)N(CCO)C(c2ccccc2[N+](=O)[O-])/C1=C(\O)c1ccccc1 (stereo not drawn)
3%,6%,CC1CC(C)CN(S(=O)(=O)c2cccc(C(=O)OCCN3CCCC3=O)c2)C1 (stereo not drawn)

Record cards, from the list above. Values in the order: KAT2A inh	N370S GC
COc1ccccc1N(CC(=O)Nc1ccc(S(=O)(=O)N2CCOCC2)cc1)S(C)(=O)=O is listed with -4%	-4%
O=C1C(=O)N(CCO)C(c2ccccc2[N+](=O)[O-])/C1=C(\O)c1ccccc1 (stereo not drawn) is listed with -14%	0%
C=CCN=C1CC(C)(C)CC(=O)/C1=C(/O)CCC(=O)OC is listed with -13%	2%
O=C(CSCc1cnn(-c2ccccc2)c1-n1cccc1)NCc1cccnc1 is listed with -1%	14%

The list continues.
KAT2A inh,N370S GC,compound
-8%,-3%,COc1ccc(NC(=O)CN(C)C(=O)/C=C/c2cn(-c3ccccc3)nc2-c2cccs2)cc1
-2%,5%,CC(C)(CC(=O)O)CC(=O)N1CCCN(c2nc3ccc(Cl)cc3s2)CC1
-5%,3%,COc1ccc(OCC(=O)Nc2cc(-c3nn4c(C)nnc4s3)ccc2C)cc1
-5%,-4%,COc1ccc(C(=O)/C=C/C(=O)N(Cc2ccccc2OC)C(C(=O)NC2CCCCC2)c2ccncc2)c(O)c1 (stereo not drawn)
-10%,3%,COc1ccc(NC(=S)NCCCN2CCCC2)cc1
-4%,-6%,Cc1noc(C(=O)Nc2ccc(F)cc2F)c1Cl
-6%,nt,Cc1ccc(-c2ccc(=O)n(CC(=O)Nc3ccc(F)c(Cl)c3)n2)cc1C
-4%,-20%,CC(=O)Nc1ccc(-c2csc(NC(=O)CN3C(=O)NC4(CCCC4)C3=O)n2)cc1
-3%,-2%,COC(=O)CN1C(=O)[C@H]2[C@@H](C3CC3)N3C(=O)CN(CCO)C(=O)[C@@]3(Cc3ccccc3)[C@H]2C1=O
-3%,0%,COc1ccc(C(=O)CC(=O)C(=O)Nc2ccccc2OC)cc1
-2%,2%,Cc1cc(NC(=O)C2CC2)n(-c2nc3ccccc3s2)n1
1%,1%,CN(Cc1ccccc1)C(=O)CCS(=O)(=O)c1ccc2c(c1)n(C)c(=O)c(=O)n2C

Going on with the list.
KAT2A inh,N370S GC,compound
-14%,-19%,O=C1C2C3c4ccccc4C(c4ccccc43)C2C(=O)N1/N=C/c1cccc(O)c1 (stereo not drawn)
-29%,-5%,COc1ccc2c(Cl)c(C(=O)N/N=C3\CCCC(=O)C3)sc2c1
-23%,-6%,Cc1ccc(-c2ccc(/C=N/N3C(=O)C4C5C=CC(C6CC56)C4C3=O)o2)c([N+](=O)[O-])c1 (stereo not drawn)
0%,nt,Nn1c(SCC(=O)Nc2ccc3c(c2)CCC3)nnc1C1CC1
-6%,2%,CCCc1nn(C)c(C(=O)Nc2ccccc2)c1Cl
-11%,-21%,CCN1CCN(Cc2ccc(NC(=O)c3cc(NC(=O)N4CCNC4=O)cc(OC)c3)cc2C(F)(F)F)CC1
-10%,6%,O=C(CCC1CCCCC1)Nc1ccc(C(=O)c2ccncc2)cc1
0%,20%,N#CC(C(=O)Nc1ccccc1)=C1Nc2ccccc2N1
?,9%,Cc1ccccc1C1NS(=O)(=O)N=C1N (stereo not drawn)
1%,-15%,CC(=O)NS(=O)(=O)c1ccc(NC(=O)/C=C/c2cn(-c3ccccc3)nc2-c2ccccc2)cc1
-9%,-3%,C=CCOC(=O)CSCC(NC(=O)OC(C)(C)C)C(=O)OCC (stereo not drawn)
-6%,nt,Cc1cccc(OCC(=O)N(Cc2sccc2C)C2CCS(=O)(=O)C2)c1 (stereo not drawn)

Two neighbouring entries out of the list so far, quoted:
KAT2A inh,N370S GC,compound
-14%,-19%,O=C1C2C3c4ccccc4C(c4ccccc43)C2C(=O)N1/N=C/c1cccc(O)c1 (stereo not drawn)
-29%,-5%,COc1ccc2c(Cl)c(C(=O)N/N=C3\CCCC(=O)C3)sc2c1

Continuation.
KAT2A inh,N370S GC,compound
-11%[0.501 µM],8%,COC(=O)Nc1ccc(S(=O)(=O)N2CCCC(C(=O)Nc3cccnc3)C2)cc1 (stereo not drawn)
-3%,-7%,O=C(O)c1ccc(/C=N\Nc2ccc(S(=O)(=O)N3CCOCC3)cc2[N+](=O)[O-])cc1
-5%,6%,O=C(c1cnn2ccccc12)N(Cc1ccco1)C1CCCC1
-1%,0%,CCOCCCN(C(=O)c1snc(C(N)=O)c1N)C(C(=O)NC1CCCC1)c1ccc(O)c(OC)c1 (stereo not drawn)
4%,4%,CC(C)(C)c1ccc(OCC(=O)NNC(=O)Cc2cccs2)cc1
-8%,-3%,COC(=O)c1cc(S(=O)(=O)Nc2cccc(OC)c2)cn1C
-12%,-12%,COc1ccccc1C(=O)NC(=O)COC(=O)c1ccc(Br)o1
-5%,-3%,Cc1c(S(=O)(=O)N2CCCC(C)C2)c(=O)n(C)c(=O)n1C (stereo not drawn)
-17%,-4%,Cc1[nH]c2ccccc2c1C(=O)COC(=O)c1c(-c2ccccc2Cl)noc1C
-6%,-10%,CCCc1cc(C(=O)Nc2ccc(F)c(Cl)c2)no1
-19%,-7%,COc1cccc(N=Cc2c(O)n(-c3cccc(C)n3)c(=O)c3ccccc23)c1
?,3%,CCCOc1cccc(C(=O)NCCCNC(=O)c2ccccn2)c1

Continuation.
KAT2A inh,N370S GC,compound
-6%,-11%,COC(=O)c1ccc(C(=O)OC)c(NC(=O)COC(=O)CCOc2ccc(C)cc2)c1
-1%,-12%,Cc1cc(NC(=O)COC(=O)[C@H](C)NC(=O)c2ccccc2)no1
-1%,-3%,CC1CCC(NC(=O)CCNC(=O)c2ccccc2)CC1 (stereo not drawn)
0%,5%,CCOc1cccc(/C=N/Nc2nc(N3CCCC3)nc(N3CCCC3)n2)c1O
-2%,1%,CCOc1ccc(CCNC(=O)C2CCN(S(=O)(=O)N3CCCCC3)CC2)cc1OCC
-1%,-9%,COc1ccc2cc(S(=O)(=O)N3CCCCC3)ccc2c1S(=O)(=O)N1CCCCC1
1%,nt,O=C(CNC(=O)c1ccccc1F)NCCc1ccccc1F
-20%,-7%,Cc1ccc(CNC(=O)CC2(CC3=NS(=O)(=O)c4ccccc4N3)CCCC2)cc1
-5%,-12%,CCCCN(C(=O)c1cccc(-n2cccc2)c1)c1c(N)n(CCCC)c(=O)[nH]c1=O
-14%,-9%,CC(=O)SCCC(=O)N1C(C)CCCC1C(=O)O (stereo not drawn)
-2%,-10%,Cc1cc2oc(=O)cc(CN3CCCCC3C)c2c(C)c1Cl (stereo not drawn)
-10%&-2%,-1%,COc1ccccc1N(CC(=O)NCCSCc1ccccc1)S(=O)(=O)c1ccc(C)cc1

(list continues)
KAT2A inh,N370S GC,compound
-3%,3%,Cc1ccccc1NC(=O)c1cc2c(=O)n3cccc(C)c3nc2s1
-4%,9%,O=S(=O)(Cc1ccccc1)c1nc2ccccc2n1Cc1ccccn1
-3%,?,CCOc1ccc2nc(SCC(=O)c3ccc(Cl)s3)sc2c1
-5%,0%,O=C(CCN1C(=O)C2CC=CCC2C1=O)Nc1ccc(S(=O)(=O)N2CCCCC2)cc1 (stereo not drawn)
-5%,12%,O=C1C(Cl)=C(NC2CCCCC2)C(=O)N1c1ccc(Cl)cc1
3%,nt,CN(C)S(=O)(=O)n1cnc([C@@H]2[C@H]3C(=O)OC[C@@H]3C[C@@]23N=CN(Cc2ccccc2)C3=O)c1
1%,3%,CCN(CC(=O)Nc1ccc([N+](=O)[O-])cc1OC)CC(=O)NC(C)(C)C
0%,8%,CCC(=O)OCc1c(C(F)(F)F)nn(C)c1Sc1ccc(F)cc1
-8%,-14%,O/N=C1\CCCC\C1=C/c1ccccc1
?,-3%,COc1ccc(CCNC(=O)CSc2nc3sc(C(=O)O)c(C)c3c(=O)[nH]2)cc1OC
-2%,nt,O=C(NCCC1=CCCCC1)c1ccc(-n2cncn2)cc1
7%,4%,NC(=O)c1nsc(C(=O)N(c2ccc(Cl)cc2)C(C(=O)NCC2CCCO2)c2cccs2)c1N (stereo not drawn)

Next part
KAT2A inh,N370S GC,compound
0%,0%,COc1ccc(CCNC(=O)C(C)Sc2ccc(C)cc2)cc1OC (stereo not drawn)
0%&-1%,-23%,CCn1cc(CCC(=O)NCc2ccccc2OC)c2ccccc21
-12%,-4%,CC(C)CC(c1nnnn1Cc1ccc(F)cc1)N1CCC(C(N)=O)CC1 (stereo not drawn)
-14%,2%,CC(=O)c1cccc(-n2nnnc2SCC(=O)NNC(=O)C(C)C)c1
2%,-4%,CCCCn1c(CCC(=O)O)nc2cc(S(=O)(=O)N(C)C)ccc21
1%,4%,CC1CCCCN1Cc1nc2c(c(=O)n(C)c(=O)n2C)n1CCc1ccccc1 (stereo not drawn)
-7%,3%,O=C(CSc1nnc(COc2ccccc2)o1)NCCc1ccccc1
-3%,-5%,CCCn1c2c(c(O)c(C(=O)Nc3nccs3)c1=O)CCCC2
-1%,11%,O=C(Nc1ccc2c(c1)OCCO2)N1CCOCC1
0%,9%,O=C(O)CC(NC(=O)Cc1ccc(Cl)cc1)c1ccco1 (stereo not drawn)
40%[activator],8%,CC1=C(C(=O)Nc2ccccc2)C(c2coc3ccccc3c2=O)C2=C(CCCC2=O)N1 (stereo not drawn)
-3%,2%,C=CCNc1cc(C(F)(F)F)nc(-c2ccccn2)n1

More records follow:
KAT2A inh,N370S GC,compound
-5%,-3%,CN(C)c1ccc(CNC(=O)CN2C(=O)COc3ccc(S(=O)(=O)N4CCCC4)cc32)cc1
0%,nt,O=C(COC(=O)CCC1CCCC1)Nc1ccc(F)cc1
-8%,0%,COC(=O)c1c(NC(=O)Cc2ccc(OC)c(S(=O)(=O)N3CCOCC3)c2)sc(C)c1C
-9%,-9%,COc1ccc(OC)c(S(=O)(=O)Nc2c(C)cccc2C)c1
